GIV Gai3 FP: inhibitors of GIV GBA-motif binding to rat Galpha-i3 | P08753 | Galpha-i3/FITC-GIV peptide fluorescence polarization, 90 min; active compounds read low; scaled: aluminum fluoride 0%, vehicle 100% | percent of control (FP), % (test concentration not listed) | 210,000 compounds, 0.42% hits;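 active means replicate mean at 85% of control or lower, very high polarization wells dropped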;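 further: lower values mean more displacement of the GIV peptide from Galpha-i3; wells of about 15 µL received 100 nL stock; the first replicate is given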
Target sequence (P08753 whole entry, looked up): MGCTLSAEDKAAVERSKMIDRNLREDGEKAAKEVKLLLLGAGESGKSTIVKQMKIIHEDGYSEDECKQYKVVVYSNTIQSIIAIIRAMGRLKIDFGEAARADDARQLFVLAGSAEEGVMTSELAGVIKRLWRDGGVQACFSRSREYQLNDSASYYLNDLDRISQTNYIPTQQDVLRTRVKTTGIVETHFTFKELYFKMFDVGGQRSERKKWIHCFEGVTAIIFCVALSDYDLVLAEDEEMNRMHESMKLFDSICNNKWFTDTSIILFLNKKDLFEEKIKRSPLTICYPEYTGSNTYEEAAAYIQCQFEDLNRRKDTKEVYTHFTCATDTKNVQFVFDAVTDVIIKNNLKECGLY
Sa growth inh: S. aureus growth inhibition | S. aureus RN4220 growth, OD600, 20 h, 42 °C; active compounds read low | relative growth, % (concentration not given with the values) | AID 720641 | 170,000 compounds, 0.53% hits;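 active means growth at 42 °C up to 50% and 20 or more points under that at 30 °C, or under 10% at both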;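 further: 300 nL library stock went into each well; scaled to the means of positive and negative controls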
HCMV UL50-53 inh: cytomegalovirus nuclear egress complex inhibition | 190,000 compounds, 0.15% hits | HTRF UL50-UL53 interaction, normalized percent inhibition | AID 1918969 | inhibition, % (concentration not given with the values);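 active means both replicates at 50% or more, plus weaker picks with an unusually low signal ratio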;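 further: stock transfer was 100 nL into about 20 µL; 0% = negative control wells and 100% = wells with untagged competitor protein; inactives centre near -12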
Sa growth inh second temp: also measured in Sa growth inh; calls as there; relative growth, %; measured here: growth at 30 °C;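 optical density after 20 h as mean of two plates; 100% = untreated growth and lower means inhibition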
Active calls of the source: *; · = not tested or not shown. This is a random part of the collection; overall some 0.85% were active at least once.

1) CCOc1ccccc1NC(=O)c1c(NC(=O)C(C)Oc2cccc(Cl)c2)sc2c1CCCCC2 (stereo not given)
2) Cc1ccsc1C(=O)OCC(=O)c1ccc2c(c1)OCCO2
3) CN(C)c1ccc(/C=C2\C(=O)N(c3ccccc3)N=C2C(=O)Nc2ccccc2)cc1
4) O=C(Oc1ccc(C2Oc3ccccc3C3CC(c4ccc(Cl)cc4)=NN32)cc1)c1ccc(Br)cc1 (stereo not given)
5) CCOC(=O)c1c(-c2ccccc2)oc2c1cc(OC(=O)c1ccc(Cl)cc1Cl)c1ccccc12
6) CCOC(=O)c1cnc2c(C(F)(F)F)cccc2c1N1CCOCC1
7) CC(=O)NCc1ccc(C(=O)CSc2nnc(-c3cccc(F)c3)n2N)o1
8) Cc1ccc(NC(=O)c2ccccc2S(C)(=O)=O)cc1
9) CC(C)(C)C(N)Cn1cccn1 (stereo not given)
10) O=C(NCc1ccc(Cl)cc1)c1ccc(S(=O)(=O)c2ccc(Cl)cc2)nc1
Assay by compound	1	2	3	4	5	6	7	8	9	10
GIV Gai3 FP	104.2	·	·	96.6	109.4	107.5	·	·	101.1	95.8
Sa growth inh	101.1	86.8	89.2	·	·	99.1	94.5	99.6	117.6	·
Sa growth inh second temp	95.9	81.7	85.4	·	·	103.1	84.2	93.0	87.1	·
HCMV UL50-53 inh	-27.7	-28.8	-0.1	-19.9	1.8	-7.1	-82.6	-39.9	-21.5	-23.3

Compounds shown so far containing a thiophene ring, fused or not:
1) CCOc1ccccc1NC(=O)c1c(NC(=O)C(C)Oc2cccc(Cl)c2)sc2c1CCCCC2 (stereo not given)
2) Cc1ccsc1C(=O)OCC(=O)c1ccc2c(c1)OCCO2
Assay by compound	1	2
GIV Gai3 FP	104.2	·
Sa growth inh	101.1	86.8
Sa growth inh second temp	95.9	81.7
HCMV UL50-53 inh	-27.7	-28.8

The list continues:
11) NCCOc1ccccc1Cc1ccccc1
12) COc1ccc(-c2nn3c(NCc4cccnc4)cc(C)nc3c2C)cc1OC
13) CC(C)N1CC(C(=O)O)CC1=O (stereo not given)
14) CCc1nnc(NC(=O)C2CC2)s1
15) Cc1ccc2c(c1)c1c(c(=O)n(-c3cccc(Cl)c3)c(=O)n1CC(=O)Nc1c(C)cccc1C)n2C
16) CCn1nnnc1SCC(N)=O
17) O=C(Nc1nc(-c2cc3ccccc3oc2=O)cs1)c1ccc(S(=O)(=O)N2CCc3ccccc32)cc1
18) Cc1cc(C)n(CC(=O)NCc2ccccc2)c(=O)c1C#N
19) Cc1ccc(C)n1-c1ncn[nH]1
20) CCc1cccc2c(-c3ccc(F)cc3)nc(SCC(=O)Nc3ccccc3)nc12
Assay by compound	11	12	13	14	15	16	17	18	19	20
GIV Gai3 FP	·	108.1	104.7	·	104.1	106.6	101.8	101.1	·	96.5
Sa growth inh	104.0	·	99.7	93.3	96.8	106.3	·	82.1	94.5	91.4
Sa growth inh second temp	113.4	·	79.4	81.5	87.0	91.2	·	89.7	93.2	96.4
HCMV UL50-53 inh	6.1	-21.5	-16.9	-20.1	0.3	12.0	-28.6	-28.8	6.0	-1.6

21) Cc1ccc2c(c1)c1c3c(nccn32)CCC1
22) O=C1NCCCN1Cc1ccc(Cl)cc1
23) CCOC(=O)C1=C(C)Nc2nnnn2C1c1ccc(Cl)cc1 (stereo not given)
24) COc1ccccc1CC(=O)Nc1cccc(C)n1
25) Cc1cc(-c2ccccc2)n(-c2cc(Cl)ncn2)n1
26) COc1ccc(N(CC(=O)N2CCN(c3ccccc3F)CC2)S(=O)(=O)c2ccc(OC)c(OC)c2)cc1
27) Cc1oc2ncn(CC(=O)N3CCN(C4CCCCC4)CC3)c(=O)c2c1C
28) Cc1c(NC(=O)c2nc3ccccc3n(C)c2=O)cccc1[N+](=O)[O-]
29) COC(=O)c1c(-c2cccs2)csc1NC(=O)c1cccc(Cl)c1
30) CCCOC(=O)c1ccc(NC(=O)Cn2nnc3sc4c(c3c2=O)CCC(C(C)(C)C)C4)cc1 (stereo not given)
Assay by compound	21	22	23	24	25	26	27	28	29	30
GIV Gai3 FP	76.5*	107.2	99.9	103.2	98.8	98.4	108.7	106.4	111.6	103.0
Sa growth inh	55.7	99.2	·	94.9	95.9	·	·	116.0	82.5	89.1
Sa growth inh second temp	1.7	93.7	·	82.4	79.3	·	·	89.0	89.3	88.5
HCMV UL50-53 inh	-40.0	3.3	-3.2	2.8	-12.7	-15.7	-3.5	-45.7	-4.4	-38.4

31) CCOC(=O)c1c(-c2ccccc2)oc2ccc(O)c(CSCC(=O)Nc3ccccc3)c12
32) Cc1ccc(C2Nc3ccccc3-n3cc4c(=O)n(C)c(=O)n(C)c4c32)c(O)c1 (stereo not given)
33) C(=N\n1c(-c2ccco2)csc1=NC1CCCCC1)/c1ccccn1
34) CCOC(=O)CSc1nnc2c3ccccc3c3ccccc3c2n1
35) COc1ccc(C(CNC(=O)Nc2ccc3c(c2)OCCO3)c2c[nH]c3ccccc23)cc1OC (stereo not given)
36) Cc1ccc(CN(Cc2ccco2)C(=S)Nc2c(C)cc(C)cc2C)cc1
37) CC1=CC(C)(C)Nc2ccc(OC(=O)CN3C(=O)CCC3=O)cc21
38) O=C(Nc1ccc(NC(=O)c2cccs2)cc1)c1ccc2c(c1)OCCO2
39) N#C/C(=C(\Oc1ccccc1)C(F)(F)F)c1ccccc1
40) COc1ccccc1NC(=S)N1CCN(C2CCCCC2)CC1
Assay by compound	31	32	33	34	35	36	37	38	39	40
GIV Gai3 FP	107.0	107.6	·	102.9	98.9	101.0	99.8	102.0	105.0	106.5
Sa growth inh	93.8	·	101.6	93.4	·	67.1	68.2	·	110.8	104.5
Sa growth inh second temp	82.4	·	98.2	93.2	·	36.7	58.1	·	108.4	97.1
HCMV UL50-53 inh	·	-17.6	-9.9	-2.4	-19.5	·	-22.7	-8.1	4.3	-7.9

41) Cn1cccc1/C=C1\CS/C(=C\c2cccn2C)C1=O
42) CCOC(=O)c1c(C)[nH]c(C)c1C(=O)CSc1nnc(C(F)(F)F)n1N
43) O=C(CCSc1nnnn1-c1ccccc1)c1ccc(F)cc1
44) Cc1cc(=O)oc2c3c(ccc12)OC(=O)/C3=C\c1ccccc1
45) COc1ccc(-c2c(-c3ccc(OC)cc3)n(Cc3ccc(F)cc3)c3nc[nH]c(=O)c23)cc1
46) O=C(O)CCC(=O)N1CCN(C(c2ccccc2)c2ccccc2)CC1
47) CC1Cc2cc(S(=O)(=O)N(Cc3ccccc3)C(C)C)ccc2N1C(=O)C1CCC1 (stereo not given)
48) CCOC(=O)c1c(C)oc2ncnc(Nc3ccc(CC)cc3)c12
49) Cc1cc(C)cc(NC(=O)C(=O)NCC(c2cccnc2)N2CCc3ccccc32)c1 (stereo not given)
50) Cc1nc2ccc(CCO)cc2s1
Assay by compound	41	42	43	44	45	46	47	48	49	50
GIV Gai3 FP	130.6	·	·	·	103.8	99.3	106.5	101.6	104.0	102.5
Sa growth inh	94.3	75.0	104.9	89.7	91.3	100.5	132.7	107.0	119.8	98.2
Sa growth inh second temp	80.9	89.8	89.8	89.1	90.4	89.3	90.5	85.5	97.4	79.5
HCMV UL50-53 inh	-27.9	-34.5	-1.3	-26.1	·	·	·	-14.4	-4.8	-7.3

51) COc1ccc(CCNC(=O)C2c3ccccc3C(=O)N2Cc2ccccc2)cc1OC (stereo not given)
52) COc1ccc(C(=O)OCC(=O)N(C)Cc2ccccc2)cc1
53) Cc1cc(/C=C(\C#N)C(=O)O)c(C)n1CC1CCCO1 (stereo not given)
54) CCc1ccc2oc(-c3cccc(NC(=O)COc4ccccc4Cl)c3)nc2c1
55) CC(NC(=O)c1ccc(-n2nnc3cccnc32)cc1)c1ccccc1 (stereo not given)
56) COc1ccc(-c2nc(SCC(=O)NC(C)CCc3ccccc3)n[nH]2)cc1 (stereo not given)
57) Cc1cc(N=CNc2ccc(Br)c(C)c2)ccc1Br
58) COC(=O)c1ccc(NC(=O)NC(C)c2c(-n3cccc3)sc(C)c2C)cc1 (stereo not given)
59) O=C(Cn1c(Cc2ccccc2)nc2sc3c(c2c1=O)CCCC3)Nc1cccc(C(F)(F)F)c1
60) COc1cccc(C2CC(=O)Nc3n[nH]c(C)c32)c1 (stereo not given)
Assay by compound	51	52	53	54	55	56	57	58	59	60
GIV Gai3 FP	104.4	·	·	134.9	116.0	101.7	·	102.0	98.2	101.8
Sa growth inh	103.2	112.9	74.2	105.8	·	85.1	96.3	96.1	·	·
Sa growth inh second temp	87.4	98.6	93.2	89.4	·	91.5	85.2	88.3	·	·
HCMV UL50-53 inh	·	10.9	-39.6	-31.7	-26.8	·	-2.0	1.0	-30.6	-14.3

Complete entries from above. Values in the order: GIV Gai3 FP, Sa growth inh, Sa growth inh second temp, HCMV UL50-53 inh
COC(=O)c1c(-c2cccs2)csc1NC(=O)c1cccc(Cl)c1 across the screens: 111.6, 82.5, 89.3, -4.4
CCOC(=O)CSc1nnc2c3ccccc3c3ccccc3c2n1 across the screens: 102.9, 93.4, 93.2, -2.4
O=C(NCc1ccc(Cl)cc1)c1ccc(S(=O)(=O)c2ccc(Cl)cc2)nc1 across the screens: 95.8, ·, ·, -23.3
CC1=CC(C)(C)Nc2ccc(OC(=O)CN3C(=O)CCC3=O)cc21 across the screens: 99.8, 68.2, 58.1, -22.7
Cc1ccc(NC(=O)c2ccccc2S(C)(=O)=O)cc1 across the screens: ·, 99.6, 93.0, -39.9

(continued)
61) CC(=O)c1cccc(NC(=O)CSc2nc3ccccc3nc2Cc2ccc(F)cc2)c1
62) Cc1cccc(NS(=O)(=O)c2ccccc2)n1
63) Cc1ccc(NC(=O)c2ccc(=O)n(CC(=O)Nc3c(C)cc(C)cc3C)n2)cc1
64) Cc1cc(C)c2c(CC(=O)N3CCCC3)coc2c1
65) O=C1Cn2c(nc3ccccc3c2=O)CN1Cc1ccc(Cl)cc1Cl
66) O=C(NCc1ccc(F)cc1)c1cc2c(=O)[nH]c3ccccc3c2s1
67) CCOc1ccc(C=Nc2ccc3c(c2)ncn3C)cc1
68) CC(=O)N1N=C(c2c(-c3ccccc3)c3cc(Cl)ccc3[nH]c2=O)CC1c1cccc(Br)c1 (stereo not given)
69) c1ccc(Sc2ncnc3c2oc2ccccc23)nc1
70) Cn1ncc2c(NNC(=O)C3CCCCC3)ncnc21
Assay by compound	61	62	63	64	65	66	67	68	69	70
GIV Gai3 FP	101.3	97.1	108.7	105.1	·	94.6	97.1	98.6	·	101.9
Sa growth inh	87.1	114.0	113.1	114.2	89.0	114.8	116.5	·	72.2	100.4
Sa growth inh second temp	91.6	84.3	85.0	93.0	99.9	93.8	77.3	·	90.3	91.5
HCMV UL50-53 inh	·	-3.2	·	0.4	5.5	1.0	-23.7	0.5	4.8	-8.2

71) Cc1ccc(-c2c(C#N)c(SCC(=O)c3ccc(F)cc3)nc3c2CCCC3)o1
72) O=C(CCC(=O)N1CCCC1c1nc2ccccc2s1)N1CCc2ccccc21 (stereo not given)
73) CCCCN(CC)c1nc(C(=O)OCC)nc2ccccc12
74) Cc1ccc(C2CC(C(F)(F)F)n3ncc(C(=O)N4CCN(C(c5ccccc5)c5ccccc5)CC4)c3N2)cc1 (stereo not given)
75) Cc1c(C)c(C)c(CSC2CC(=O)N(c3ccccc3)C2=O)c(C)c1C (stereo not given)
76) CC1CCN(C(=O)c2ccc3c(c2)N(Cc2ccccc2)C(=O)c2ccccc2S3(=O)=O)CC1
77) COc1cc(C2OCC3C(C)C=C(C)C2C3C)ccc1O (stereo not given)
78) Clc1cccc(-c2ccc(CNCCSc3nnnn3-c3ccccc3)o2)c1
79) COC(=O)c1ccc(CSc2nc3scc(-c4cccs4)c3c(=O)[nH]2)o1
80) O=C(NCC(=O)N1CCc2ccccc21)c1cccc(Cl)c1
Assay by compound	71	72	73	74	75	76	77	78	79	80
GIV Gai3 FP	104.8	101.1	106.3	98.0	98.9	105.6	·	104.9	·	·
Sa growth inh	67.1	·	91.6	·	98.9	113.8	105.4	104.6	119.0	108.1
Sa growth inh second temp	58.8	·	72.7	·	89.2	89.2	101.5	65.7	99.7	84.1
HCMV UL50-53 inh	20.6	0.9	-24.2	2.5	-19.5	-4.4	13.8	-15.6	2.5	-35.8

81) O=c1[nH]c(-c2ccccc2)cs1
82) Cc1ccc2nc(CNC(=O)CCn3ccc(C)n3)[nH]c2c1
83) O=C(O)CSc1nnc(COc2ccc(Cl)cc2)n1-c1ccc(Br)cc1
84) CCN(C(=O)Cc1noc2ccccc12)c1ccccc1
85) CCCc1nc(SCC(=O)c2ccc(Cl)cc2)nc(OC(=O)N(CC)CC)c1C
86) CCOc1ccccc1NC(=O)C(c1ccccc1)N1Cc2ccccc2C1=O (stereo not given)
Assay by compound	81	82	83	84	85	86
GIV Gai3 FP	101.9	107.7	·	100.2	106.3	106.6
Sa growth inh	90.3	·	106.2	101.7	95.4	106.7
Sa growth inh second temp	92.3	·	84.7	90.8	94.5	87.2
HCMV UL50-53 inh	-31.6	12.0	-2.2	-11.8	-4.6	·
